Menin MLL FP FL – displaces fluorescein MLL peptide from human menin | FP activity change, % at 61.4 µM | 290,000 tested, under 10 active | Fluorescence polarization, fluorescein-MLL peptide displacement from menin; inconclusive = falling polarisation curve, or a change in total fluorescence; inactive = total fluorescence flat and polarisation flat or rising; no compound was filed as active; the % refers to the polarisation; negative = inhibition;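 note: % of control where 0% means no effect; inhibitors lower the polarisation; unlabelled MLL peptide was the positive control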
TRPML1 inh – inhibitors of human TRPML1 channel | Q9GZU1 | 390,000 compounds, 0.02% hits | activity change, negative = inhibition, % (test concentration not listed) | TRPML1-inducible cells, Ca2+ dye fluorescence, FDSS; hits give low values; inhibition of EC80 agonist-evoked calcium signal | AID 624415; in the data active means activity change below about -50%; inconclusive means about -30% to -50%; inactive means above about -30%;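 note: stimulus is agonist 54-4 at its EC80 concentration; % is set by controls: 0 for no effect and ±100 for the full control effect; compound concentration not given in the record; the text of the record puts the active cut at -80%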
Target sequence (Q9GZU1 whole entry, looked up): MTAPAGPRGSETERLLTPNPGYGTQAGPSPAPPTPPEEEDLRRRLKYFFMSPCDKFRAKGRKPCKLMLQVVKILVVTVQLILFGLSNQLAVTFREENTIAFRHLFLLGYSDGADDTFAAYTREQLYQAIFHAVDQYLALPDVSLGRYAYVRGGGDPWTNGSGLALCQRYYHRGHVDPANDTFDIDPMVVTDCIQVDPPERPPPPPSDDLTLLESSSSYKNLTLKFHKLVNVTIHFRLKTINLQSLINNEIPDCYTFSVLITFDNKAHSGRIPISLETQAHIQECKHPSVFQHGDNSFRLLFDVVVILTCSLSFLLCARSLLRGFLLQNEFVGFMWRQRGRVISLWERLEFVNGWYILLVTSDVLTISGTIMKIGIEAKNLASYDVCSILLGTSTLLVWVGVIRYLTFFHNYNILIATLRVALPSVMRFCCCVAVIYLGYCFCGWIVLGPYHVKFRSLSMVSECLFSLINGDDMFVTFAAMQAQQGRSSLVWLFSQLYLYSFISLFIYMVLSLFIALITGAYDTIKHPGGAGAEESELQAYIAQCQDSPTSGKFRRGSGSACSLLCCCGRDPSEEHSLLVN
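Calcium fluorescence in TRPML1-DL cells induced overnight with Tet: a 110 s read after compound pin addition, then a 110 s antagonist read after challenge with 54-4 at 4 uM final (EC80).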
gsp antag – antagonists of gsp mutant (McCune-Albright syndrome); Potency, µM (series often up to 76.9 µM), for inactives: top-dose activity change, negative = inhibition, usual class: inhibitors; gsp-mutant cells, cAMP HTRF, 30 min; control for the full effect not named in the record; 340,000 compounds, 0.4% hits; AID 624288; active = falling curve of any shape with a large fitted effect; inconclusive = falling curve, mostly with a smaller effect; inactive = flat or rising curve; cell line not stated here;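 note: intracellular cAMP measured with PDE inhibitor Ro 20-1724 present during compound exposure; potency is the fitted concentration of half-maximal effect; % is set by controls: 0 for no effect and ±100 for the full control effect; nearly all actives have a fitted effect of over 65% in size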
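G418-selected cells were plated in DMEM/10% FBS for 16-24 h at 37C, then treated with compounds plus the PDE inhibitor […] (300 uM solution added) for 30 min at 37C. Intracellular cAMP was measured by HTRF after 30 min lysis at room temperature.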
ClpP mod – qHTS Assay for Activators of ClpP. purified B. subtilis ClpP, FRET peptide cleavage, 20 min. Potency, µM (doses to about 57.5 µM), without a hit: top-dose activity change, negative = active. 340,000 compounds, 1.9% hits. AID 651965, 2013; active = well fitted falling curve with a large enough effect; inconclusive = small, poorly fitted or top-dose-only effect; inactive = no such curve, though single readings can be large or run the other way; note: potency is the fitted concentration of half-maximal effect; the source files actives as falling curves though it sought activators and does not explain the sign; nearly all actives have a fitted effect of over 65% in size; many hits overshoot -100%
Target sequence (P80244 whole entry, looked up): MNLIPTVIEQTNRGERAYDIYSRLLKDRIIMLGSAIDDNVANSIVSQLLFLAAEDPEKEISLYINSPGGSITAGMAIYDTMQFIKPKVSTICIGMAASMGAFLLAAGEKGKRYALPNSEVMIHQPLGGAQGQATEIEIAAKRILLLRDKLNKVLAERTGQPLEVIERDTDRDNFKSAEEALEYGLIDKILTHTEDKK
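ClpP 10 microg/mL final, pH 8 Tris/KCl buffer with BSA, glycerol, Tween-20; compound pinned in; FRET-FV substrate; RT 20 min; Ex320/Em430; ΔFRET vs ADEP 5.8 microM, DMSO, no enzyme.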
TRPML1 ag – agonists of human TRPML1 channel; 410,000 compounds, 0.12% hits; activation, % (test concentration not listed); TRPML1-expressing cells, Ca2+ dye fluorescence, FDSS; host cell line not named in the record; reference of the full effect not given here; in the data active = activation above about 50%; inconclusive = about 30% to 50%; inactive = below about 30%; note: 0% is about no effect; the text of the record puts the active cut at 80%
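Tetracycline-induced TRPML1-DL cells are seeded and incubated overnight before loading with a no-wash Ca2+ dye and quencher. Agonist activity is taken from the 110 s fluorescence read following compound pin-transfer on an FDSS, before EC80 54-4 challenge.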
gsp ag – activates gsp, the McCune-Albright syndrome mutation | gsp mutant cells, cAMP HTRF, 30 min; control for the full effect not named in the record | Potency, µM (highest dose often 76.9 µM), without a hit: at the highest dose activation (cAMP increase), usual class: activators | AID 624287 | 340,000 compounds, 0.13% hits; active = well fitted activation curve with a large enough effect; inconclusive = small, poorly fitted or top-dose-only effect, or another doubt; inactive = no such curve, though single readings can be large or run the other way; cell line not stated here;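 note: phosphodiesterase inhibitor Ro 20-1724 added with compounds to block cAMP breakdown; potency is the fitted concentration of half-maximal effect; nearly all actives have a fitted effect of over 60% in size; about a fifth of the inactives were tested at one dose only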
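Cells stably selected in G418 were plated at 2000/well, grown 16-24 hr, then given compounds in DMSO with the PDE inhibitor […] (300 uM solution added) for 30 min at 37C; cAMP was read by HTRF.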
The depositor's hits bear a star; ? = inconclusive; . = not tested or not shown; & = joins results of further samples; ! = repeats disagree; [ ] = dose if it differs, or a comment.

SMILES	Menin MLL FP FL	TRPML1 inh	gsp antag	ClpP mod	TRPML1 ag	gsp ag
Cc1ccc(-c2n[nH]c(=S)n2/N=C/c2cccn2C)cc1	-0.6	-1.4	-20.1%	-1.2%	0.1	-37.3%
Cc1cc(NCCN2CCOCC2)n2c(nc3ccccc32)c1C#N	1.0	4.9	6.0%	3.55µM*	-0.6	-2.9%
CC(NC(=O)C1CCN(S(=O)(=O)N2CCC3(CC2)OCCO3)CC1)c1ccccc1 (stereo not drawn)	3.8	3.7	7.5%	-0.6%	0.7	11.3%
CC(=O)Nc1ccc(S(=O)(=O)N2CCC(C(=O)NCCC(=O)Nc3nccs3)CC2)cc1	1.8	-14.4	18.5%	0.0%	-0.4	-12.3%
COc1cc(C(=O)NCC(c2ccc(Cl)cc2)N2CCOCC2)cc(OC)c1OC (stereo not drawn)	.	-5.8	.	0.8%	-0.6	.
COc1ccc(-n2c(=O)[nH]c3c(C(N)=O)nc(C4CCCCC4)nc32)cc1	1.9	1.5	-3.6%	2.6%	1.8	6.4%
O=C(NCc1ccc2c(c1)OCO2)c1ccc(S(=O)(=O)N2CCOCC2)cc1	-2.9	-11.2	6.9%	.	-0.7	-12.4%[15.4 µM]
COc1cccc(-c2noc(-c3ccc4c(c3)OCO4)n2)c1	0.3	-11.3	-6.2%	1.3%	1.7	8.0%[15.4 µM]
O=C(NCc1cccc(Br)c1)c1cc(-c2ccccc2)nn1CC1CC(c2cccnc2)=NO1 (stereo not drawn)	.	-7.9	-16.2%	-2.5%	0.6	.
CS(=O)(=O)N(CC(=O)NCCSCc1ccccc1Cl)c1ccccc1F	-3.0	.	-10.1%	0.8%	.	2.3%
Cc1ccc(C(=O)Nc2ccc(Br)cc2)cc1S(=O)(=O)NCc1ccccc1	.	14.9	.	-26.6%	2.0	.
Cc1ccc(OC(=O)c2ccc(C)c([N+](=O)[O-])c2)cn1	-0.6	6.5	9.7%	10.8%	-0.2	-2.6%
CCCC(=O)NC(=S)NNC(=O)c1ccc([N+](=O)[O-])cc1	4.9	3.9	6.9%	6.2%	-0.2	1.6%
CCN(C(=O)c1ccc2c(SCC(=O)O)c3c(nc2c1)CCC3)c1cc(Cl)ccc1OC	.	-1.2	-1.8%	-0.2%	0.1	12.6%
COC(=O)c1sccc1NC(=O)c1ccc(Br)s1	-2.1	-5.5	6.1%	-17.1%	-0.2	?
COc1ccccc1C1CC(=O)NC(C)=C1C(=O)OC(C)C (stereo not drawn)	-5.5	-3.1	-10.4%	.	-0.8	-4.5%[15.4 µM]
C=CCC[C@H](Cc1ccc(F)cc1)C(=O)OC[C@H](Cc1c[nH]c2ccccc12)NC(=O)[C@@H](CC=C)CC(=O)N[C@H](CO)Cc1ccccc1	.	8.0	-21.8%	1.1%	-0.2	-18.5%
O=C(Oc1ccc(Br)cc1)c1cccc(S(=O)(=O)N2CCOCC2)c1	3.4	1.3	-26.2%	0.5%	-1.0	5.7%[15.4 µM]
COc1cc(C(=O)OCC(=O)Nc2ccc(N3CCOCC3)cc2)ccc1OCC(C)C	.	11.1	1.0%	.	0.9	30.6%[15.4 µM]
O=C1c2ccccc2-c2n[nH]c3cccc1c23	?	39.1	14.8%	-2.3%	7.0	-85.8%[inhibitor]
CNC(=O)c1ccccc1-c1cn(C)c2ccccc2c1=O	-3.2	3.6	15.7%	.	-0.4	-9.1%[15.4 µM]
N#Cc1c(NC(=O)C2CC(c3ccccc3O)=NO2)sc2c1CCC2 (stereo not drawn)	6.2	-11.4	-16.9%	-3.6%	1.3	4.1%
CCOC(=O)N1CCN(c2c(NCCCN3CCCCCC3)c(=O)c2=O)CC1	0.3	-2.1	1.8%	1.1%	-0.3	20.8%
Cn1cc(CN(CCO)Cc2cccs2)c(-c2cccc(Cl)c2)n1	-2.6	12.2	-4.7%	-0.1%	0.7	-4.5%
CC(Oc1ccccc1)C(=O)Nc1cccc(NC(=O)c2ccco2)c1 (stereo not drawn)	2.2	-5.4	20.6%	-0.4%	0.8	-24.2%
CCOc1ccc(NC(=O)Cn2cnc3sc(C)c(S(=O)(=O)N4CCN(c5ccccc5OC)CC4)c3c2=O)cc1	.	-15.4	.	-0.1%	0.3	.
c1ccc(C(c2nnnn2C2CCCC2)N2CCN(c3nc4ccccc4s3)CC2)cc1 (stereo not drawn)	-1.4	-11.8	9.7%	-1.9%	1.1	2.9%
Cc1ccc(NC(=O)NC2CC(=O)N(c3ccc4c(c3)OCCO4)C2)cc1F (stereo not drawn)	.	18.8	0.2%	-0.7%	0.4	0.9%
O=C(NN=C1CCCC1)c1cccs1	0.1	-26.6	12.1%	-0.7%	-0.7	-42.4%[inhibitor]
Cc1ccc(C)c(-n2c(SCC(=O)NC(C(=O)O)C(C)C)nnc2-c2cccc(Cl)c2)c1 (stereo not drawn)	2.0	19.6	.	.	-0.6	-1.8%[15.4 µM]
CCc1ccc(S(=O)(=O)c2cnc3ccc(OC)cc3c2N2CCCC(C)C2)cc1 (stereo not drawn)	.	-1.5	.	-2.1%	1.3	.
Cc1cc(C)c2c(=O)cc(C(=O)Nc3ccc(C)c(Cl)c3)oc2c1	.	-16.7	.	-4.1%	0.1	.
CCCCOc1ccc(NC(=O)CSCC(=O)OCC)cc1	1.1	16.5	-3.7%	0.1%	1.5	5.8%
CCOC(=O)N1CCN(S(=O)(=O)c2ccc3[nH]c(=O)oc3c2)CC1	2.9	-23.2	-4.6%	-0.8%	0.0	6.4%
O=C(CSc1ccc(F)cc1)NCCSc1ccccc1	6.4	28.2	7.7%	.	0.2	-1.7%[15.4 µM]
O=c1c2c(-c3ccccc3)ccnc2[nH]n1-c1ccccc1	4.2	-2.5&-8.5	-21.4%	-5.3%&-0.6%	0.4&0.5	10.6%[15.4 µM]
CCc1cccc(CC)c1NC(=O)CNCc1cccs1	-5.5	6.1	-5.0%	.	-0.1	0.7%
Cc1nc2ccc(NC(=S)N3CCCC3)cc2nc1C	1.8	1.5	9.5%	-6.2%	-0.2	27.2%
O=S(=O)(c1ccccc1F)N1CCC(c2nc3ccccc3[nH]2)CC1	-2.0	-16.4	-4.7%	.	1.5	27.7%
COc1ccc(/C=C(\NC(=O)c2ccccc2)C(=O)N2CCCCC2)cc1OC	-3.0	10.4	0.8%	1.7%	-0.6	-2.4%
C/C(=N\OCC(=O)Nn1c(C)nc2ccccc2c1=O)c1ccccc1	.	-5.9	10.1%	0.5%	-0.7	2.4%
Cc1ccccc1-c1nnc(SCC(=O)Nc2ccc(Cl)cc2)n1N	-3.1	-2.3	-3.3%	-3.0%	-0.1	4.3%
COC(=O)c1c(C)[nH]c(C(=O)CSc2ncnc3sc(-c4ccccc4)cc23)c1C	.	-2.0	3.9%	-3.3%	-0.6	-17.3%
O=C(c1ccc(COc2ccc(Br)cc2)o1)N1N=C(C(F)F)CC1(O)C(F)F (stereo not drawn)	2.6	12.3	-13.1%	0.4%	2.9	-39.9%[inhibitor]
Cc1cc(C)c2c(c1)SC1=NC(c3ccccc3)(C(F)(F)F)NC(=O)N12 (stereo not drawn)	0.3	10.9	-0.5%	-1.9%	1.7	-17.9%
CN1CCN(c2ccc(Nc3ccnc4cc(Cl)ccc34)cc2)CC1	-2.1	-7.2	-10.8%	.	0.2	-3.9%
CC(C)c1ccc(NC2CCCN(C(=O)CC3CCCC3)C2)cc1 (stereo not drawn)	.	25.5	13.4%	1.5%	2.7	-8.9%
COc1ccc(C(=O)/C=C(/C)N(C)C)cc1	1.2	5.8	-2.8%	-3.4%	0.6	12.5%
O=C(Nc1ccccc1N1CCCC1)C1CCN(S(=O)(=O)c2ccc(F)cc2)CC1	.	-3.8	20.9%	-3.5%	?	24.2%
Cc1ccc(NC(=O)CN2CCN(Cc3ccccc3)CC2)cc1	-0.3	-5.2	13.2%	-0.3%	0.8	-0.5%
CN(C)c1ccc(/C=C/c2ccc3ccccc3n2)cc1	?	-11.0	1.4%	-9.0%&-5.5%	52.3*!	?
CCc1ccccc1Nc1nc2ccccc2n2cnnc12	.	4.4	.	12.3%	0.6	.
NS(=O)(=O)c1ccc(CCNC(=O)c2ccc(C#CC3(O)CCCCC3)cc2)cc1	6.9	8.7	-8.8%	0.5%	-0.1	31.8%
O=C(Nc1cc(Cl)ccc1Cl)Nn1cnnc1	-0.3	-4.3	4.0%	1.0%	0.0	-17.7%
c1ccc(-c2cn(C[C@H]3CC[C@@H]([C@@H]4CC[C@H](Cn5cc(-c6ccccc6)nn5)O4)O3)nn2)cc1	0.4	23.4	-15.5%	0.8%	0.7	25.1%
COc1ccc(-c2ccoc2)cc1C1C2C=CCC(C)C2C(=O)N1Cc1ccccc1 (stereo not drawn)	?	77.9	.	.	0.9	.
CC1(C)C(C=C(Cl)Cl)C1C(=O)N(Cc1cccc(Cl)c1)C1CCS(=O)(=O)C1 (stereo not drawn)	2.6	-2.7	-0.5%	-0.9%	1.3	-53.8%[inhibitor]
O=C(O)CCC(=O)N(Cc1cccs1)Cc1cccs1	-2.0	-0.4	1.2%	0.2%	-0.2	17.4%
COc1cc(CCCN2C(=O)C(=O)NC[C@@H]2CC2CCCCC2)cc(OC)c1OC	.	14.0	-5.2%	-1.6%	0.1	-26.6%
CCOc1ccccc1NC(=O)N1CCc2c(sc3c2CCCC3)C1c1ccccc1 (stereo not drawn)	.	19.8	.	-1.0%	2.5	.
Other compounds follow.
SMILES	Menin MLL FP FL	TRPML1 inh	gsp antag	ClpP mod	TRPML1 ag	gsp ag
Cc1cc(C)cc(C(=O)Nc2ccc(N3CCN(C(=O)c4ccco4)CC3)cc2)c1	-2.6	-8.6	-13.9%	9.0%	2.5	-15.0%
O=C(CC1c2ccccc2Oc2ccccc21)Nc1ccccc1C(F)(F)F	-2.0	-6.5	12.6%	1.4%	4.6	-15.1%
Cc1cc(C)nc(Oc2ccc([N+](=O)[O-])cc2)n1	-0.6	-12.2	11.7%	.	-0.6	29.4%[15.4 µM]
Nc1nnc(SCn2nnc3ccccc3c2=O)s1	2.6	-7.8	9.1%	0.3%	0.5	5.9%
CCCOc1ccc(C2NC(=O)CCC2[N+](=O)[O-])cc1 (stereo not drawn)	-2.7	.	7.1%	0.8%	.	-5.1%
Cc1cc(C)c(NC(=O)CS(=O)CC(=O)Nc2cccnc2)c(C)c1 (stereo not drawn)	0.6	18.3	11.4%	0.9%	-0.6	2.3%
COc1cc2c(cc1C(F)(F)F)N(C(=O)Nc1cc(F)cc(-c3cccnc3)c1)CC2	-3.2&30.5	.	.	-1.9%	0.0	.
Nc1nc2c(ncn2[C@@H]2O[C@H](CNS(=O)(=O)C3CC3)[C@@H](O)[C@H]2O)c(=O)[nH]1	.	0.6	.	-7.0%	-0.4	.

Bioassay records (PubChem BioAssay)
